Mtb hypoxia rep = Mtb hypoxia fluorescent reporter inhibition; M. tuberculosis hypoxia-regulated fluorescent reporter, fluorescence; fluorescence inhibition, % (no concentration beside the values); hit rate 0.1% among 300,000; AID 1159583;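 active = 35 to 45% if threefold the growth effect, above 45% if 1.5-fold the growth effect; inactive = the rest, general growth blockers included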;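 note: wells of about 50 µL received 100 nL stock; 0% = vehicle wells and 100% = reference inhibitor wells; whole bacteria with a GFP reporter of the hypoxia response; strong numbers were not always called active; many hits fall short of the cut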
Sa RN4220 lethal = kills Staphylococcus aureus RN4220; S. aureus RN4220 growth, OD600, 16 h; inhibition, % (test concentration not listed); hit rate 0.33% among 330,000;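 active = z-score of -3 or lower and OD600 up to 0.18 on both plates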;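 note: plate controls were untreated cells for no effect and reference antibiotic for full effect; stock transfer was 100 nL into about 80 µL; one replicate is shown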
PrP 5UTR inh = inhibition of PrP 5' UTR reporter expression. cell-based PrP 5' UTR mRNA reporter, plate reader. inhibition, % (test concentration not listed). hit rate 0.35% among 340,000. AID 488862;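 active = every replicate at 50% or more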;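 note: 0 = median of the neutral control wells; tested in H4 reporter cells; numbers are from one replicate; inactives centre near -14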
Bead autofluor = flagged as autofluorescent in microsphere protease counterscreen; compound autofluorescence counterscreen, microsphere flow cytometry; hits give high values; fluorescence intensity (no concentration beside the values); hit rate 3.1% among 360,000; AID 624483;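 active = at least 3 SD above the mean of all compounds, about 16000 in these data; inconclusive = too few beads counted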;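 note: 100 nL of 1 mM stock went into each well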
BJeLR lethal = BJeLR cell viability loss; BJeLR (HRASV12) viability, CellTiter-Glo ATP luminescence, 48 h; reference of the scale not given here; inhibition, % (concentration not given with the values); hit rate 0.17% among 300,000;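 active = replicate mean above 50%; inconclusive = above 50% but judged a plate artefact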;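 note: 50 nL library stock added to about 25 µL; numbers are from one replicate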
ugtP null kill = kills S. aureus RN4220 lacking UgtP. growth inhibition, % (no concentration beside the values). S. aureus RN4220 ugtP deletion, OD600 growth, 16 h; some inactives read as strong as hits. hit rate 0.54% among 330,000. AID 1259309;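 active = z-score under -3 and OD600 up to 0.15 on both plates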;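 note: plate controls were untreated wells for no effect and antibiotic for full effect; wells of about 80 µL received 100 nL stock; the first replicate is given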
Mtb hypoxia rep growth = further read-out of Mtb hypoxia rep, marked with its call; growth inhibition, %; measured here: M. tuberculosis growth (absorbance);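 0% = vehicle and 100% = reference antibiotic; read after six days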
An asterisk follows results filed as active; u = inconclusive; x = no result given.

The line under a structure holds: Mtb hypoxia rep, Mtb hypoxia rep growth, Sa RN4220 lethal, PrP 5UTR inh, Bead autofluor, BJeLR lethal, ugtP null kill
CCCCNC(=O)c1ccc(NS(=O)(=O)c2ccc3[nH]c(=O)[nH]c3c2)cc1
  6, 17, 1.4, -7, u, -1, -3
CC(=NNC(=O)c1cccc2ccccc12)c1cccs1
  -6, -5, 1.9, x, x, x, 1
CC1CCCC(NC(=O)COC(=O)c2ccccc2Sc2ccccc2C#N)C1C (configuration not stated)
  4, 2, 11, -49, 9374, -5, -14
CCC(C)(C)NC(=O)C(c1cccn1C)N(C(=O)Cn1nnc2ccccc21)c1ccc(OC)cc1 (configuration not stated)
  12, 3, 0.8, -13, 2865, -2, -2
CCCN1Cc2cccc(C(=O)N3CCN(c4ccc(F)cc4)CC3)c2C1=O
  7, -2, -0.7, -4, 3063, 4, 11
COc1ccc(CNC(=O)c2noc(C)c2[N+](=O)[O-])cc1
  -5, -2, 5.9, -12, 2342, 3, 14
COc1ccc(CNC(=O)COC(=O)c2cccc(S(=O)(=O)N3CCOCC3)c2)cc1
  -11, -5, 3.3, -9, 8688, x, -1
COc1ccccc1N1C(=O)[C@@H]2[C@H](C1=O)[C@H](C(=O)c1ccc(OC(C)=O)cc1)N1N=CC=C[C@@H]21
  15, 3, 3.9, x, x, -6, 2
CCNc1ncnc2c1cnn2C1CCCCO1 (configuration not stated)
  3, 7, 2.5, -47, 3595, x, 3
CC(C)C(NS(=O)(=O)c1cccc2nsnc12)C(=O)NCc1ccc2c(c1)OCO2 (configuration not stated)
  6, 4, 8.7, -8, 5983, -8, 9
O=C(NCCCN1CCCC1)c1ccc2c(Cl)c3c(nc2c1)CCCC3
  17, 11, 1.6, 6, 2415, -2, 13
Cc1cc(F)ccc1NCc1ccncc1
  17, 1, 7.8, 3, 10142, 2, 0
CCN1CCCC1CNC(=O)c1cc(S(=O)(=O)CC)c(N)cc1OC (configuration not stated)
  -3, 1, 4.8, x, x, 3, 0
CC(C)(C)c1ccc(/C=N/NC(=O)C(=O)NCCCN2CCOCC2)cc1
  x, x, x, -8, 7849, 4, x
CC(NC(=S)N1CCN(c2ccccc2)CC1)c1ccccc1 (configuration not stated)
  13, 8, 9.0, -17, 4756, 6, 1
CC1CCC(NCCc2ccc3c(c2)OCO3)CC1 (configuration not stated)
  -2, 0, -3.4, -3, 10663, -4, -4
Cc1ccc(-c2sc(-c3cccnc3)nc2CC(=O)O)cc1
  6, 8, 4.2, -10, 3973, -4, 4
CCCCN(C(=O)CSCc1ccc(C)cc1)c1c(N)n(CCC)c(=O)[nH]c1=O
  12, 7, 2.0, -7, 5292, -9, 6
COc1ccc(NC(=O)CN2C(=O)NC3(CCCc4ccccc43)C2=O)c(OC)c1 (configuration not stated)
  -1, -5, 3.8, -10, 4644, x, 6
COc1ccc(C(C(=O)NC2CCCC2)N(C(=O)c2ccoc2C)c2cc(C)cc(C)c2)cc1 (configuration not stated)
  7, 5, -2.3, -11, 7383, 11, -22
CC(C)CNC(=O)Nc1ccc(F)c(Cl)c1
  13, 17, 0.6, -7, 1888, 3, -9
COc1ccc(-c2csc3ncnc(N4CCN(S(=O)(=O)c5ccc(Cl)s5)CC4)c23)cc1
  8, 0, 2.1, -30, 8207, 3, -3
Cc1cc2nc3n(c2cc1C)CC1CC(C(=O)NCCc2cccs2)N(C)C31 (configuration not stated)
  5, 4, 1.2, -1, 2942, -10, 2
COc1cc(OC)c(NC(=O)Nc2ccc(OC)c(OC)c2)cc1Cl
  12, 7, 4.4, -3, 3261, -4, 4
CCOC(=O)c1sc(NC(=O)Nc2ccccc2F)nc1C
  11, 9, 6.6, 29, 2338, 20, 7
CCN(CC)S(=O)(=O)c1ccc(N2CCOCC2)c(NS(=O)(=O)c2ccc(C(C)C)cc2)c1
  13, 5, 9.8, -11, 2422, -14, 6
COc1ccc(-c2noc(COc3ccc4ccccc4c3Br)n2)cc1OC
  7, 8, 3.6, -19, 3643, -1, 3
O=C(COc1ccc(Cl)cc1Cl)Nc1ccc(CN2CCOCC2)cc1
  14, 2, 0.4, 2, 5822, 1, 1
O=C(/C=C/c1ccco1)Oc1cccc2cccnc12
  19, 7, 8.7, -24, 5709, -10, -2
Cc1nc2ccccn2c1C(=O)NC1CCCCC1
  12, 15, 0.6, -13, 3313, -1, -4
CC(C)OCCCNC(=O)c1ccc(NC(=O)C2CCCO2)cc1 (configuration not stated)
  6, 10, 6.6, -15, 3562, -2, 1
COc1ccc(NC(=O)CSc2nnc(Cn3c(=O)sc4ccccc43)n2C)c(OC)c1
  x, x, 3.4, 2, 4451, -5, -12
COc1ccccc1NC1CCCCC1NS(=O)(=O)c1ccc(C)cc1 (configuration not stated)
  5, 0, 4.8, 9, 5297, 2, -2
COc1ccc(-c2cc3ccccc3n2CC(O)CNC(CO)(CO)CO)cc1 (configuration not stated)
  3, 7, 2.1, -20, 5715, -3, -8
Cc1cccc(C)c1NC(=O)CCCCCNS(=O)(=O)c1ccccc1
  6, 4, 2.9, -29, 3992, 2, 5
C=CCn1c(SCC(=O)N(C)C)nc2cc(C(=O)O)ccc2c1=O
  10, 6, 3.1, -2, 4240, -7, 9
CCN(c1ccc(OC)cc1)S(=O)(=O)c1csc(C(=O)N2CCCC2)c1
  15, 5, 5.2, 0, 5582, -4, 2
COc1cc(C2N(c3cccc(Cl)c3)C(=O)C3CCCN32)cc(OC)c1OC (configuration not stated)
  x, x, -4.1, -15, 4581, -5, 1
CCOC(=O)c1csc(NN=C2CCCc3ccccc32)n1
  11, -1, -0.5, x, x, x, -14
C/C=C/C(=O)N1c2ccc(C)cc2C(C)=CC1(C)C
  0, 9, 0.1, 5, 3391, -8, -2
NC(=O)CSc1nnc(-c2cc(-c3cccs3)nc3ccccc23)o1
  2, 1, 8.5, -20, 2478, x, -6
O=[N+]([O-])c1cc(Cl)cc(/C=N/Nc2nc3ccccc3s2)c1O
  x, x, x, -12, 3431, 2, x
COc1ccc(Nc2nc(N)nc(CSC(=S)N3CCN(C)CC3)n2)cc1
  7, 5, -1.3, -29, 2238, 0, 12
COc1ccc(OC)c(NC(=S)NN2CCOCC2)c1
  x, x, 1.3, -7, 2253, 7, 17
Cc1nc(N2CCCCC2)nc(N2CCCCC2)c1C=O
  12, 0, 4.1, -17, 7943, -1, 7
CCCNC(=O)c1ccc(COc2ccc(C(C)(C)C)cc2)o1
  2, 5, 1.2, x, 3709, 1, 6
Cc1ccc(-n2c(SCC3CCCCO3)nnc2-c2ccco2)cc1 (configuration not stated)
  4, 1, 3.7, -14, 2077, 0, 10
CN(C(=O)c1cc2ccccc2oc1=O)C1(C)CCS(=O)(=O)C1 (configuration not stated)
  3, -1, 3.4, 81*, 4583, 3, 4
CCC(=O)C1CCCN(C(=O)c2ccc3nc(-c4cccc(OC)c4)oc3c2)C1 (configuration not stated)
  6, 13, 0.3, -31, 5569, -4, 2
O=C(COC(=O)c1cc(S(=O)(=O)N2CCOCC2)ccc1F)c1ccc[nH]1
  4, -1, 6.9, -16, 9937, -1, 2
CS(=O)(=O)N1CCC(C(=O)Nc2c(F)cccc2F)CC1
  x, x, 0.2, -6, 4004, 2, -2
COCCn1c(N)c(N(Cc2ccccc2)C(=O)c2oc3ccccc3c2C)c(=O)[nH]c1=O
  3, 15, 4.7, -10, 4178, 8, 3
O=S1(=O)CCC(N=Cc2ccc(-c3ccc(Cl)cc3)o2)C1 (configuration not stated)
  x, x, x, -27, 4436, -3, x
Cc1cc(Cl)c(S(=O)(=O)NC2CCCC2)cc1OCC(=O)NC1CCCCC1
  9, 13, -6.0, -10, 9920, 4, -9
Cc1ccc(-n2c(-c3ccc(Cl)cc3)c[n+]3c2CCC3)cc1
  3, 3, -3.2, -14, x, 15, 9
Cc1ccc(NC(=O)CSc2nc(C)c(C)c(C)n2)cc1S(=O)(=O)N1CCOCC1
  5, 5, 1.1, -10, 3785, x, -1
CCOC(=O)NN=C1CCC(c2ccccc2)CC1 (configuration not stated)
  -3, 10, -1.9, -10, 5791, -1, 0
Cc1c(Cl)c([N+](=O)[O-])nn1CCCC(=O)Nc1ccc(Cl)cc1Cl
  10, 9, 9.4, -15, 7102, -10, -16
O=C(COC(=O)c1ccccc1O)Nc1cccc(S(=O)(=O)N2CCCC2)c1
  1, 2, 5.7, -26, 3862, x, 4
CSCCCNC(=O)c1ccc(OC2CCN(CCc3ccccc3)CC2)cc1
  6, -3, 0.6, -42, 4537, 12, 0

2 entries from above, with bars between the fields:
smiles | Mtb hypoxia rep | Mtb hypoxia rep growth | Sa RN4220 lethal | PrP 5UTR inh | Bead autofluor | BJeLR lethal | ugtP null kill
O=C(COC(=O)c1ccccc1O)Nc1cccc(S(=O)(=O)N2CCCC2)c1 | 1 | 2 | 5.7 | -26 | 3862 | x | 4
COc1cc(C2N(c3cccc(Cl)c3)C(=O)C3CCCN32)cc(OC)c1OC (configuration not stated) | x | x | -4.1 | -15 | 4581 | -5 | 1

Further entries
The line under a structure holds: Mtb hypoxia rep, Mtb hypoxia rep growth, Sa RN4220 lethal, PrP 5UTR inh, Bead autofluor, BJeLR lethal, ugtP null kill
COc1ccc(C(=O)NCC(=O)Nc2ccc(F)cc2)cc1OC
  2, -2, 2.5, 1, 16515*, 1, 2
O=C(O)C1CCCCC1C(=O)Nc1ccc(F)cc1F (configuration not stated)
  1, 5, 1.9, 5, 20999*, 3, 1
CCc1ccc(C(=O)COC(=O)c2cnccn2)cc1
  8, 7, -13, -9, 2991, 4, -6
CC(=O)N(C)CC#CCN1CCC(O)CC1
  9, 5, 0.0, -13, 4006, 2, -2
CCOC(=O)C1CCN(C(=O)COC(=O)c2ccc(=O)n(Cc3ccccc3)n2)CC1
  -4, -5, -1.8, -17, 5783, 4, -2
COc1ccc(OC)c(CNC(=O)C2CCCN(c3nc4ccccc4o3)C2)c1 (configuration not stated)
  2, -2, 5.8, -19, 15813, -2, 11
Nc1cccn2c(-c3ccc(Cl)cc3)cnc12
  5, 12, 7.0, -91, 4358, 4, 4
Cc1ccc(NC2(c3nnnn3-c3c(C)cccc3C)CCCCC2)cc1
  -3, 4, 19, -7, 2394, 1, 18
CCOC(=O)CCNC(=O)c1ccccc1Br
  9, 14, 2.9, -15, 3749, -7, -8
Cc1ccc(NC(=O)CN(C)C(=O)CN2C(=O)NC(C)(c3ccccc3)C2=O)cc1 (configuration not stated)
  3, 3, 2.7, -5, 11126, -9, 7
O=S(=O)(Cc1ccccc1Cl)CC(O)COc1ccccc1Cl (configuration not stated)
  x, x, 6.7, -9, 3387, -3, 14
COC(=O)Cc1c(C)nc2nc(-c3ccccc3)[nH]n2c1=O
  x, x, 1.5, -21, 6078, 0, 0
COc1cc(-c2nnco2)cc(OC)c1OC
  13, -4, 5.5, x, x, 8, 6
Cc1ccc(C(=O)C(=O)c2ccc(C)c(N)c2)cc1N
  11, -6, 1.9, -13, 4043, -4, 7
Clc1nc(-c2ccccc2)cc(-c2ccc(Br)cc2)n1
  -5, 9, 5.2, -29, 23930*, 4, -18

Record cards (already shown). Order of screens: Mtb hypoxia rep, Mtb hypoxia rep growth, Sa RN4220 lethal, PrP 5UTR inh, Bead autofluor, BJeLR lethal, ugtP null kill
CCN(CC)S(=O)(=O)c1ccc(N2CCOCC2)c(NS(=O)(=O)c2ccc(C(C)C)cc2)c1 is entered as 13, 5, 9.8, -11, 2422, -14, 6
Cc1cc2nc3n(c2cc1C)CC1CC(C(=O)NCCc2cccs2)N(C)C31 (configuration not stated) is entered as 5, 4, 1.2, -1, 2942, -10, 2

Bioassay records (PubChem)
